# RmlCD inh mix – inhibitors of RmlC and RmlD coupled enzymes; RmlC/RmlD coupled enzyme inhibition, 384-well mixture HTS; inhibition, % at 5.5 µM; 0.39% of 110,000 active; AID 1532; in the data active = inhibition above about 30%, passing the limit was not always enough; only retested compounds are shown here; note: strong numbers were not always called active
# RmlCD inh mix retest – also measured in RmlCD inh mix; calls as there; inhibition, %; measured here: mean retest inhibition;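 single compounds in two wells; values far above 100% likely come from compound fluorescence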
# The depositor's hits bear a star. An excerpt; rates above refer to the full screens.
SMILES,RmlCD inh mix,RmlCD inh mix retest
Cc1cc(=O)oc2cc(O)ccc12,84*,196*

# Bioassay records as filed in PubChem.
